# Assay outcomes (PubChem BioAssay)
# NPR1 antag: blocks ANP-stimulated signaling of human Npr1 receptor; P16066; 76,000 compounds, 1.6% hits; AID 1347048; HEK293 hNpr1 GloSensor cGMP, ANP-stimulated luminescence; Potency, µM (highest dose often 46.3 µM), without a hit: at the highest dose activity change, negative = inhibition, hits mostly inhibitors; active = well fitted inhibition curve with a large enough effect; inconclusive = small, poorly fitted or top-dose-only effect; inactive = no such curve, though single readings can be large or run the other way;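 also: nearly all actives have a fitted effect of over 60% in size; nearly all hits also lower the signal before the agonist is added; a reference antagonist and vehicle were the controls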
# Target sequence (P16066 whole entry, looked up): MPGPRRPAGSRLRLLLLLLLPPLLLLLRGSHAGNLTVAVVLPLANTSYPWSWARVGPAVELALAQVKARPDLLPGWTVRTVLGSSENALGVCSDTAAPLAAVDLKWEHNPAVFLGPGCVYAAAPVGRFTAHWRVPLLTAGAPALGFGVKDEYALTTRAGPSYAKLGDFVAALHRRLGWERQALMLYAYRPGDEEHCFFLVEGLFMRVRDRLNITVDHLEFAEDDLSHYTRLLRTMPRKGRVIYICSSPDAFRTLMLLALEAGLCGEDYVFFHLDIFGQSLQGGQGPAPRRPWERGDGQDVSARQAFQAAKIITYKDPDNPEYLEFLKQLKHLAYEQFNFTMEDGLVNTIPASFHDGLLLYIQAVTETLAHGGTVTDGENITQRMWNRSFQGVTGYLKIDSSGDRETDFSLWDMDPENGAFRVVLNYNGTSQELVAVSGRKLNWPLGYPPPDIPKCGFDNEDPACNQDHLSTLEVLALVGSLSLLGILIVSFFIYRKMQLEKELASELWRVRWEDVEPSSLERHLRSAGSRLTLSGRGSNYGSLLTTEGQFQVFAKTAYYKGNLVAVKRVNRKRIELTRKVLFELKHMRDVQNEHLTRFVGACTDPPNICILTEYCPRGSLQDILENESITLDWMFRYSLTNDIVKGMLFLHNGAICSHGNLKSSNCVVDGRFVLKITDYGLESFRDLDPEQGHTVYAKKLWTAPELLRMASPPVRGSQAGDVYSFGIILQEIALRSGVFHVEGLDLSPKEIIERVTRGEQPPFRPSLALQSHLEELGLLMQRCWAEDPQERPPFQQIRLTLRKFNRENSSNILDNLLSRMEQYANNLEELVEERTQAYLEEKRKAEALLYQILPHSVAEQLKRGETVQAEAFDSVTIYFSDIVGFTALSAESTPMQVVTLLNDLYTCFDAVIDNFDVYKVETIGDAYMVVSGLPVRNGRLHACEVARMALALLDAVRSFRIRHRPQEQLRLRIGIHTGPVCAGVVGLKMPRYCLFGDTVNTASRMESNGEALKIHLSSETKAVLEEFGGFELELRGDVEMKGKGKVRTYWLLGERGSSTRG
#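 HEK293 cells stably expressing human Npr1 and cGMP GloSensor pGS-40F, loaded 2 h with 2% GloSensor reagent, given compound 30 min at room temperature. Luminescence read before and 20 min after 0.1 nM hNppA.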
# Active calls of the source: *; [ ] = dose if it differs, or a comment. % is scaled to controls: 0 for no effect and ±100 for the full control effect; potency is read from the fitted curve at half-maximal effect. An excerpt. The share of hits here may be higher or lower than overall.
SMILES,NPR1 antag
COCCNC(=O)c1ccc2c(c1)N(C)C(CC(=O)N1CCC(O)CC1)CO2 (stereo not drawn),9%
CN(C)S(=O)(=O)N1CCCC(c2nc(-c3cccnc3)no2)CCNC(=O)CC1 (stereo not drawn),-3%
Cc1ccc(NC(=O)N2CC(C(=O)N(C)C)C3(CCOCC3)C2)cc1Cl (stereo not drawn),1%
CCOc1nccnc1NC1CCN(S(=O)(=O)C2CC2)CC1,8%
COCCCN(CCC(=O)NCc1ccc2c(c1)OCO2)C(=O)c1cc(C)oc1C,1%
O=C(O)C[C@@H]1CCN(C(=O)Nc2ccccc2)C[C@@H]1CCN1CCN(c2ccccn2)CC1,0%
Cc1nc(C)c(CN2CCOC[C@H](Oc3cnccn3)C2)s1,0%[70.6 µM]
CN1[C@@H](CCC(=O)NCc2ccc(F)cc2)CNC(=O)[C@@H]2[C@H]1CCN2Cc1ccc(F)cc1,-2%
CCOC(=O)C1=C(C)N=C2SC=C(CC(=O)NCCc3cccs3)N2C1c1ccccc1F (stereo not drawn),-19%
Cn1nccc1-c1cc2c(cn1)CN(Cc1ccncc1)CCN2,-5%[70.6 µM]
CN1C[C@H]2CN(c3cncc(C(N)=O)n3)C[C@@]2(C(=O)O)C1,-1%
O=C(c1ccc(F)c(F)c1)N1CCN(C(=O)c2nnn3c2COC(c2ccc(Cl)cc2)C3)CC1 (stereo not drawn),13µM*
COc1ccc2nc(C[C@@H]3C[C@@H](C(C)C)[C@H](CNCc4ccccn4)C=C3C)[nH]c2c1,-25%[70.6 µM]
CC(C)OC(=O)N1CCC(COc2ccc3c(cnn3CCC(=O)O)c2)CC1,0%[70.6 µM]
Cc1[nH]cnc1CN1CCc2nc(C(=O)NCCOc3ccccc3)oc2CC1,-7%[70.6 µM]
O=C(CCC[C@@H]1[C@H]2CCCN3CCC[C@@H](CN1Cc1cccnc1)[C@@H]23)NCCN1CCOCC1,-1%
COc1ccc(CNc2ncnc3c2CN(c2ccc(C)cc2)C(=O)CN3C)cc1,3%
C[C@@H]1CN(C(=O)c2ccn(C(C)(C)C)c2)CC[C@@]1(O)C1CCOCC1,19%
CC(C)[C@@H]1CN(C(=O)CCCn2cncn2)C[C@H]1NS(=O)(=O)N(C)C,5%
COCCN1Cc2[nH]nc(-c3ccccc3OCc3ccccc3)c2CC1=O,-2%[70.6 µM]
CS(=O)(=O)N(Cc1cccnc1)C1CN(C(=O)CCCc2c[nH]c3ccccc23)C1,-25%
CCn1ccc(C(=O)N2CCC3(CC2)C(=O)N(C)c2ccccc23)n1,-2%
Cc1nnc(-c2cc(Nc3cccc(N(C)C)c3)ccn2)n1C1CCCCC1,-6%[70.6 µM]
CCn1ccc(C(=O)N2CCCN(c3cc(-c4ccc(OC)cc4)[nH]n3)CC2)n1,-4%
Cc1c(C(=O)N[C@H]2[C@H]3CCO[C@H]3[C@@H]2N(C)C)[nH]c2c(F)cccc12,3%
C=CCN1CCN(C(=O)C2CCN(C(=O)N3CC4CC(C3)[C@H]3CCCC(=O)N3C4)CC2)CC1 (stereo partly drawn),0%
O=C(CCC1CCN(C(=O)c2ccccc2F)CC1)Nc1ccccc1,-20%
CCCCCC(=O)N1CC[C@@H](CC(=O)O)[C@@H](CC)C1,1%[70.6 µM]
O=C(O)c1ccc(-c2ncc3cnc(-c4cccc(F)c4)cn23)cc1,4%[70.6 µM]
CCOC(=O)C1(Cc2ccccc2C)CCCN(Cc2cn(CC(N)=O)c3ccccc23)C1 (stereo not drawn),-1%

# Structures shown so far that contain a COOH group, in the order listed:
SMILES,NPR1 antag
O=C(O)C[C@@H]1CCN(C(=O)Nc2ccccc2)C[C@@H]1CCN1CCN(c2ccccn2)CC1,0%
CN1C[C@H]2CN(c3cncc(C(N)=O)n3)C[C@@]2(C(=O)O)C1,-1%
CC(C)OC(=O)N1CCC(COc2ccc3c(cnn3CCC(=O)O)c2)CC1,0%[70.6 µM]
CCCCCC(=O)N1CC[C@@H](CC(=O)O)[C@@H](CC)C1,1%[70.6 µM]
O=C(O)c1ccc(-c2ncc3cnc(-c4cccc(F)c4)cn23)cc1,4%[70.6 µM]

# Carrying on.
SMILES,NPR1 antag
O=C(NCc1c[nH]c2ncccc12)c1ccc(C(F)(F)F)cc1,-18%[70.6 µM]
Cc1ncsc1CN1CCCCCCNC(=O)CC1,4%
COC(=O)[C@@H]1Cc2ncn(Cc3ccc(OC)cc3)c2CN1S(=O)(=O)c1cccc(C(F)(F)F)c1,-8%
CC(C)NC(=O)C1COC2(CCN(C(=O)c3ccc(F)cc3F)CC2)N1C(=O)c1ccccc1 (stereo not drawn),3%
O=C(NCc1ccccc1)N1CCC(Cc2nc(C3CC3)n[nH]2)C1 (stereo not drawn),2%
COc1nccnc1NC1CCN(C(=O)CCc2c(C)noc2C)CC1,3%
Fc1ccccc1-c1noc(NCCc2ccc(Cl)cc2)n1,-9%
Cc1cccc(-c2noc([C@@H]3C[C@@H](O)CN3Cc3ccccn3)n2)c1,-25%[70.6 µM]
Cc1cccc(CC(=O)N2C[C@@H](Oc3ccccc3)C[C@@H]2C(=O)N2CCOCC2)c1,6%
O=C(Cc1ccc(F)cc1)N1CCC[C@H]1c1nc(-c2ccc(F)cc2)no1,-17%
Cc1cccc(-c2ccc3c(c2)C(=O)N2CC[C@H](NC(=O)NC(C)C)[C@H]2C(=O)N3)c1C,2%[70.6 µM]
Cc1cc(C(F)(F)F)nn1CC(=O)NCC12CCC=C1N(C)C(=O)CC2 (stereo not drawn),8%
COCC1(C(=O)N2CCOC(c3ccc4cc(OC)ccc4c3)C2)CCC1 (stereo not drawn),-22%
COc1ccc(CN2CC3(CCN(C(=O)Nc4ccc(OC)c(OC)c4)CC3)C2=O)cc1,-24%
O=C(Cc1ccccc1)N1CCCN(c2cc(-c3ccc(Br)cc3)[nH]n2)CC1,0%
COc1ccc(C(=O)NC2CCN(c3cc(-c4ccccc4)[nH]n3)C2)c(C)c1 (stereo not drawn),-3%
Cc1noc(C)c1CCCNC(=O)c1cccc(CCC(C)(C)O)c1,2%
O=C(c1ccncc1)N1CCCC(CN2CCOCC2)CC1 (stereo not drawn),4%
COCC(=O)NC[C@H]1CCN(Cc2cccc(Cl)c2)C[C@H]1N(C)C,6%
COCCn1ncc(N2CCC(NC(=O)C3CCOC3)CC2)cc1=O (stereo not drawn),5%
Cc1ccc(C(=O)N2CCC(CCC(=O)N3CCCCC3)CC2)cc1,2%
COc1ccc(N2CC(C(=O)N3CCC(C(=O)NCC4CC4)C3)NC2=O)cc1 (stereo not drawn),-3%
Cc1ccc(C(=O)N[C@@H]2C=C(C(=O)NCCC(N)=O)C[C@@H](O)[C@@H]2O)cc1,3%[70.6 µM]
NCC1CCCCC(=O)N1 (stereo not drawn),-7%
COCCN1C(=O)c2ccccc2C(C(=O)NC2CCCCCC2)C12CCCCC2 (stereo not drawn),-1%
O=C(NC[C@H]1O[C@@H](CO)[C@@H](O)[C@H]1N1CCOCC1)c1cccc(F)c1,8%[70.6 µM]
COc1ccc(-c2noc([C@@H]3C[C@@H](O)CN3Cc3ccc(F)cc3)n2)cc1,-9%[70.6 µM]
Cc1ccsc1C(=O)N1CCC(Oc2cccnc2)C1 (stereo not drawn),4%
Fc1ccc(F)c(CN2CCC(Oc3ccccc3-c3nc(C4CCOCC4)no3)C2)c1 (stereo not drawn),-1%
Cc1ccc(-c2nnc(C3CN(C(=O)c4cc(F)cc(F)c4)CC34CCOCC4)o2)cc1 (stereo not drawn),-4%

# 5 structures from above, ordered by heavy-atom count, lowest first:
SMILES,NPR1 antag
Cc1ccsc1C(=O)N1CCC(Oc2cccnc2)C1 (stereo not drawn),4%
COc1ccc(-c2noc([C@@H]3C[C@@H](O)CN3Cc3ccc(F)cc3)n2)cc1,-9%[70.6 µM]
COc1ccc(N2CC(C(=O)N3CCC(C(=O)NCC4CC4)C3)NC2=O)cc1 (stereo not drawn),-3%
COCCN1C(=O)c2ccccc2C(C(=O)NC2CCCCCC2)C12CCCCC2 (stereo not drawn),-1%
Cc1ccc(-c2nnc(C3CN(C(=O)c4cc(F)cc(F)c4)CC34CCOCC4)o2)cc1 (stereo not drawn),-4%

# (listing goes on)
SMILES,NPR1 antag
CCc1nc2c(c(-c3ccc(O)cc3)n1)CN(Cc1ccc(F)cc1)CC2,-27%
CC(C)C(=O)N1CCC(N2CC3CC(C2)[C@H]2CCCC(=O)N2C3)CC1 (stereo partly drawn),1%
O=C(C1CCOCC1)N1CCc2c(n(Cc3ccccc3)n(-c3ccccc3)c2=O)C1,-1%[70.6 µM]
COc1coc(CN2CCCC(CCc3ccccc3F)C2)cc1=O (stereo not drawn),-7%
O=C1NC(C(=O)NCc2ccccn2)Cn2cccc21 (stereo not drawn),0%
CC(C)c1ccc(CC(=O)N2CCCc3ncc(C(=O)NCCc4c[nH]c5ccccc45)cc32)cc1,-5%
CCC1(N2CCN(S(=O)(=O)c3cccc4cccnc34)CC2)CCN(C(=O)NC)C1 (stereo not drawn),2%
COCC(=O)N1C[C@@H]2CCCN3CCC[C@@H]([C@H]23)[C@H]1CCCC(=O)N1CCOCC1,1%
CCOCCOc1cccc(C(=O)N2CCC3(CCOCC3)CC2)c1,-1%
CN1c2cc(C(=O)Nc3ccc(Cl)c(Cl)c3)ccc2C(=O)N2CCCCCC21 (stereo not drawn),-1%
CN(C)Cc1cc(CC2(NCc3cccc4c3OCO4)COC2)no1,-3%[70.6 µM]
C=CCCC(CN1CCCC1)Oc1ccc(C(=O)NCC)cn1 (stereo not drawn),-5%
COc1ccc(C(=O)N2CCOCC3(CN(Cc4ccccc4)C3)C2)c(OC)n1,3%[70.6 µM]
COc1cccc(C(=O)N2CCc3[nH]nc(C(=O)NC4CCN(C)CC4)c3C2)c1,-1%
COc1ccccc1C(=O)N1CCCC(n2cc(-c3nc(-c4ccccc4)no3)nn2)C1 (stereo not drawn),4.5µM*
Cc1ccc(C2=NC3(CCN(C(=O)c4ccc(C)c(C)c4)CC3)ON2)cc1,-3%
CN1CCCN(C(=O)c2ccoc2)c2ccccc21,-5%
CN1[C@@H](CCC(=O)Nc2ccccc2)CNC(=O)[C@@H]2[C@H]1CCN2Cc1nc2ccccc2n1C,-1%
Cc1nc(N(C)C)ncc1C(=O)N[C@@H]1CCNC[C@H]1O,3%
COCc1nc2nc(-c3ccccc3)c(Nc3ccc(F)c(OC)c3)cc2n1C,-2%[70.6 µM]
CCCN1CCN(C(=O)c2cc(CN(C)Cc3ccccc3)on2)CC1,7%
COCC(=O)NC1CCC12CCN(S(=O)(=O)c1ccc(C#N)cc1)CC2 (stereo not drawn),-1%
CCCCc1cn(CC2CCN(C(=O)c3ccco3)CC2)nn1,-2%
Cc1nc(N2CCN(C(=O)c3c(F)cccc3Cl)CC2)cc(C(F)(F)F)n1,-2%
CN(C)C(=O)c1cccnc1OC1CCN(S(=O)(=O)Cc2ccccc2F)C1 (stereo not drawn),2%
COc1cccc([S+](=O)([O-])N2CCC23Cc2ccccc2NC3=O)c1 (stereo not drawn),0%
Cc1ccc(C#N)c(N2CCC3(CC2)CC(c2ccccc2)C(=O)N3C)n1 (stereo not drawn),-9%
O=C(COc1ccccc1)N1CCc2c(n(Cc3cccnc3)n(-c3ccccc3)c2=O)C1,0%
CCNC(=O)[C@@H]1C[C@H](N)CN1C(=O)c1cnc(-c2cccnc2)nc1C,-1%
COc1ccc(C(=O)NC2CCN(c3cc(C(F)(F)F)ncn3)CC2)cc1OC,8%
COCCN1CCCCC(CC(=O)Nc2ccc(C)c(F)c2)C1=O (stereo not drawn),2%
CC(C)NC(=O)N1CCOC[C@H]1c1ncc(-c2ccc(OC(F)(F)F)cc2)[nH]1,1%[70.6 µM]
C#CCNC(=O)C1CN(Cc2ccccc2)C(=O)N1 (stereo not drawn),19%[70.6 µM]
O=C(NC1CCCN(c2cc(-c3ccc(Cl)cc3)[nH]n2)C1)c1cccs1 (stereo not drawn),-30%
CCC(C)NC(=O)CCN(CC(C)C)C(=O)c1cc(C)oc1C (stereo not drawn),-3%
COc1cc(C(=O)N2CCc3c(nc(C)nc3N(C)C)C2)cc(OC)c1OC,-13%
CN(C)C[C@@H]1CN(c2ncccn2)C[C@H]1NC(=O)c1cccn1C,0%
O=C(c1c(F)cccc1F)N1CCCC2(C1)NC(=O)N(Cc1ccc(Cl)cc1)C2=O (stereo not drawn),-5%
CC(C)c1nnc(C2CN(C(=O)CC3CCCC3)CC23CCOCC3)o1 (stereo not drawn),2%
O=C1CCN(S(=O)(=O)c2cccs2)CCCC(c2nc(-c3cccnc3)no2)CCN1 (stereo not drawn),-1%
CCn1cc(C(=O)N2C[C@@H](COCC3CC3)[C@H](c3ccccn3)C2)cn1,5%
COc1ccc(CCC(=O)N2C[C@@H](Oc3ccccc3)C[C@H]2C(=O)NC2CC2)cc1,1%
Cc1c(F)cccc1NC(=O)C1CCN(C(=O)c2ncn3c2COC(c2ccc(F)cc2)C3)CC1 (stereo not drawn),-17%
C[C@@H](O)CNc1nccc(C2(c3ccccc3Cl)CCNCC2)n1,2%
COCc1nncn1C1CCN(S(=O)(=O)c2ccc(Cl)cc2C)CC1,6%
COCCN1C(=O)[C@@H]2C[C@@H](CN2Cc2ccc(OC)nc2)Oc2ccccc21,7%[70.6 µM]
O=C([C@@H]1C[C@H](F)CN1S(=O)(=O)c1ccc(Cl)cc1)N1CCCCC1,3%
COCC(=O)N[C@H]1C[C@@H](Cc2cc(CO)on2)C1(C)C,0%[70.6 µM]
